Marburg entry inh – inhibitors of Marburg virus binding or cell entry. Potency, µM (series often up to 37.8 µM), without a hit: top-dose activity change, negative = inhibition, hits mostly inhibitors. Marburg virus pseudotyped entry inhibition, cell reporter; control for the full effect not named in the record; about a third of the inactives were read at about 46 µM. 1.8% of 300,000 active. AID 540276; active = well fitted inhibition curve with a large enough effect; inconclusive = small, poorly fitted or top-dose-only effect, or effect the other way; inactive = flat fitted curve, though single readings scatter; tested in HEK293 cells; about a fifth of its hits are not listed in these tables; further: on the % scale 0 is the no-effect control and ±100 the full control effect; luciferase read-out
Cruzain inh noDet – cruzain (T. cruzi) inhibition without detergent; purified cruzain, Z-FR-AMC fluorescence, no detergent; 2.3% of 200,000 active; P25779; Potency, µM, without a hit: max response, negative = inhibition, hits mostly inhibitors; active means well fitted curve in the direction sought with a large enough effect; inconclusive means small, poorly fitted or top-dose-only effect, or another doubt; inactive means no such curve, though single readings can be large; an effect the other way counts as inactive or inconclusive;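 further: plate controls were enzyme without inhibitor for no effect and buffer without enzyme for full effect; nearly all actives have a fitted effect of over 40% in size; top concentration of the series not given in the record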
Target sequence (P25779 123-467 limits assumed): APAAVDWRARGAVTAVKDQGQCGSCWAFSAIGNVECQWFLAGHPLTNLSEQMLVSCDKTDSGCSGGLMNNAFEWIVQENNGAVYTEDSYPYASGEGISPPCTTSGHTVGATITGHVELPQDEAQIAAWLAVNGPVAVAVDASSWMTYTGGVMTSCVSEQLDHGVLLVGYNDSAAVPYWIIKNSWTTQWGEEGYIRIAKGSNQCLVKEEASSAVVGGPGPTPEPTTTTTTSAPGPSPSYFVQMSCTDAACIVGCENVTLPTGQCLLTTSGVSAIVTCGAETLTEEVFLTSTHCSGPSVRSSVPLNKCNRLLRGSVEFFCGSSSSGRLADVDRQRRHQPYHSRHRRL
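Detergent-free condition (0.00005% Triton X-100) in acetate buffer pH 5.5 with DTT. 1.5 nM enzyme and compound were pre-mixed 15 min, then 2 uM Z-FR-AMC substrate added; reaction progress from fluorescence change between first and third reads (60 s).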
2A StopGo – FMDV 2A StopGo reporter, luciferase signal; human cells with a luciferase reporter of 2A StopGo recoding; control for the full effect not named in the record; Potency, µM (series often up to 57.9 µM), without a hit: at the highest dose signal change, negative = less light; 1.2% of 410,000 active; AID 1159524; active = well fitted falling curve with a large enough effect; inconclusive = small, poorly fitted or top-dose-only effect; inactive = no such curve, though single readings can be large or run the other way; tested in HEK293T cells; further: on the % scale 0 is the no-effect control and ±100 the full control effect; nearly all actives have a fitted effect of over 45% in size; luciferase light after 4 h
NS1 function inh – blocks influenza NS1 protein function | S. cerevisiae slowed by influenza A NS1, growth recovery by OD600 | Potency, µM (titrated, usually from 46.1 µM), for the others: at the top dose activity, positive = more growth | 0.4% of 270,000 active; further: actives are rising curves; nearly all actives have a fitted effect of over 50% in size
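OD600 was taken as the measure of yeast growth restored by compound in an NS1-expressing S. cerevisiae strain. Cells had been washed out of glucose medium and diluted 1:100 into galactose -URA medium, pH 6.0.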
RE007 growth inh – less growth of the S. pombe RE007 Vpr strain. AID 651644. Potency, µM (doses to about 92.2 µM), without a hit: top-dose activity change, negative = less growth. S. pombe RE007 Vpr strain, BacTiter-Glo ATP luminescence, 24 h; control for the full effect not named in the record. 0.21% of 360,000 active; active = well fitted falling curve with a large enough effect; inconclusive = small, poorly fitted or top-dose-only effect; inactive = no such curve, though single readings can be large or run the other way;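 further: on the % scale 0 is the no-effect control and ±100 the full control effect; nearly all actives have a fitted effect of over 50% in size; the assay follows cell death caused by Vpr and the record does not say whether a fall means rescue or toxicity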
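Fission yeast RE007 carrying one integrated HIV-1 vpr copy, seeded at OD 0.01 in PMG+AL medium with 23 nL pinned compound. Grown 24 h at 30 degrees; viability read by BacTiter-Glo luminescence after 5 min.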
Cruzain inh Det – cruzain (T. cruzi) inhibition with detergent; Potency, µM, for the others: max response, negative = inhibition, hits mostly inhibitors; AID 1478; 0.43% of 200,000 active; purified cruzain, Z-FR-AMC fluorescence, 0.01% Triton; active means well fitted curve in the direction sought with a large enough effect; inconclusive means small, poorly fitted or top-dose-only effect, or another doubt; inactive means no such curve, though single readings can be large; an effect the other way counts as inactive or inconclusive;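 further: plate controls were neutral wells for no effect and buffer without enzyme for full effect; nearly all actives have a fitted effect of over 40% in size; top concentration of the series not given in the record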
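Detergent-containing run (0.01% Triton X-100) in acetate buffer pH 5.5 with 5 mM DTT: enzyme at 1.5 nM final, 15 min compound preincubation at room temperature, then 2 uM Z-FR-AMC substrate. Activity taken as 60 s fluorescence increase at 360/450 nm.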
LASV entry inh – blocks Lassa virus binding to or entry into cells; 1.2% of 300,000 active; Lassa virus pseudotype entry inhibition, cell reporter; control for the full effect not named in the record; Potency, µM (doses to about 37.9 µM), for the others: top-dose activity change, negative = inhibition, actives largely listed as inhibitors; active means well fitted inhibition curve with a large enough effect; inconclusive means small, poorly fitted or top-dose-only effect, or effect the other way; inactive means flat fitted curve, though single readings scatter; tested in HEK293 cells; further: on the % scale 0 is the no-effect control and ±100 the full control effect; nearly all actives have a fitted effect of over 50% in size; luciferase read-out
SARS PLpro yeast – SARS-CoV PLP inhibition in yeast; 0.19% of 330,000 active; AID 485353; Potency, µM (titrated, usually from 32.9 µM), for the others: top-dose activity, positive = growth rescue; S. cerevisiae expressing SARS-CoV PLpro, growth rescue; control for the full effect not named in the record; further: 0% is about no effect; nearly all actives have a fitted effect of over 55% in size; growth read by luminescence after 48 h
* = called active by the depositor; ? = inconclusive; . = not tested or not shown; [ ] = dose if it differs, or a comment. Unless noted, the call rests on the fitted dose curve; in most records, active means well fitted rising curve with a large enough effect; inconclusive means small, poorly fitted or top-dose-only effect; inactive means no such curve, though single readings can be large or run the other way. Potency means the concentration at half of the fitted maximal effect. This is a random part of the collection; 4.7% or so of the library scored in one or more.

1) O=C(/C=C/c1ccc(-c2ccc(F)cc2)o1)N1CCCC1
2) COc1ccc(-c2cc(C(=O)NCc3ccc(Cl)cc3)no2)cc1OC
3) O=C(CSc1ncn[nH]1)Nc1cc(S(=O)(=O)N2CCCC2)ccc1Cl
4) CC(C)N1CCC(NC(=O)NC2CCCCC2)CC1
5) Cc1cc([N+](=O)[O-])ccc1NC(=O)C(C)[n+]1ccccc1 (configuration not stated)
6) Cc1ccc(NC(=O)CN(C)C(=O)c2ccccc2OCc2c(C)noc2C)cc1
7) Cc1ccc(CN2CCN(CC3CC4C=CC3C4)CC2)cc1 (configuration not stated)
8) O=C(Nc1nc2c(Cl)cccc2s1)C1CC1

Screen / compound no.,1,2,3,4,5,6,7,8
Marburg entry inh,?,8.4%,19.3%[46.1 µM],?,-4.7%[46.1 µM],3.1%[46.1 µM],?,.
Cruzain inh noDet,.,8.9%,.,.,.,.,-1.2%,.
2A StopGo,14.0%,17.3%,8.3%,23.5%,-5.1%,-4.0%,-26.2%,26.9%
NS1 function inh,.,0.0%,.,5.9%,.,.,-4.7%,-45.1%
RE007 growth inh,-18.6%,-0.6%,-20.2%,-4.3%,11.7%,-10.1%,-4.6%,21.8%
Cruzain inh Det,.,1.4%,.,.,.,.,2.7%,.
LASV entry inh,?,-2.7%,4.6%,3.8%,-0.5%,10.0%,?,.
SARS PLpro yeast,-5.2%,0.1%,1.1%,0.1%,0.4%,4.2%,7.0%,-32.1%

9) Cc1noc(/C=C/Nc2ccc(F)cc2F)c1[N+](=O)[O-]
10) O=C1CC(c2cccs2)CC2=C1C(c1ccccc1)n1ncnc1N2 (configuration not stated)
11) CCOC(=O)C[n+]1c(C)sc2ccc(OC)cc21
12) COc1ccc(CC(=O)OCc2cc3ccc(C)cc3[nH]c2=O)cc1
13) Cc1ccc2c(c1)C=CC(C)(C)S2=O (configuration not stated)
14) CN(C(=O)COC(=O)/C=C/c1ccc(F)cc1)c1c(N)n(Cc2ccccc2)c(=O)[nH]c1=O
15) Cc1ccc(-c2csc3nnc(SCc4csc(C)n4)n23)cc1
16) CC(=O)Nc1nc(C)nc(-c2ccccc2OC(C)=O)n1

Screen / compound no.,9,10,11,12,13,14,15,16
Marburg entry inh,?,1.8%,-19.4%[46.1 µM],-0.2%,-1.5%,9.3%,-15.7%,?
Cruzain inh noDet,.,-5.7%,1.4%,-8.6%,1.2%,.,-5.5%,0.4%
2A StopGo,-4.8%,-13.0%,-13.9%,-11.4%,-16.8%,?,-22.7%,11.2%
NS1 function inh,.,-3.1%,-1.8%,-0.7%,13.1%,.,-46.3%,3.9%
RE007 growth inh,-6.0%,16.1%,1.1%,1.2%,-5.6%,-12.2%,6.4%,15.5%
Cruzain inh Det,.,-1.4%,-7.9%,-8.5%,-2.9%,.,4.1%,1.7%
LASV entry inh,?,7.9%,9.3%,-11.2%,-0.3%,-1.7%,-6.9%,9.6%
SARS PLpro yeast,-7.7%,3.2%,-0.8%,6.8%,10.2%,5.8%,-3.6%,-1.2%

17) CCO[C@H]1OC(C(=O)NC2CC2)=C[C@@H](c2csc3ccccc23)[C@@H]1CCCO
18) COc1ccccc1NC(=O)CN1CCN(CC(=O)Nc2ccc3c(c2)OCO3)CC1
19) CCC(C)C(NC(=O)[C@@H](NC(=O)c1ccccc1F)C(C)C)C(=O)OC (some centres not stated)
20) CC(C)NC(=O)N1CCN(c2ccncc2S(=O)(=O)N2CCOCC2)CC1
21) O=C(NCc1cccnc1)c1cccc(F)c1
22) O=C(Cc1ccc(Cl)cc1)Nc1cc(Cl)ccn1
23) Cc1nc(-c2ccc(S(=O)(=O)Oc3ccc(Cl)cc3Cl)s2)cs1
24) CCCCOc1ccc(C(=O)NNC(=O)C2C3C=CC(C3)C2C(=O)O)cc1 (configuration not stated)

Screen / compound no.,17,18,19,20,21,22,23,24
Marburg entry inh,.,0.0%,2.9%,-2.5%,18.5%,?,?,.
Cruzain inh noDet,.,-2.2%,4.0%,-3.6%,-4.1%,.,.,.
2A StopGo,-26.1%,?,-9.6%,0.0%,?,42.8%[activator],?,11.0%
NS1 function inh,3.1%,-5.2%,-4.5%,6.8%,-8.7%,.,-0.2%,25.8%
RE007 growth inh,6.7%,19.7%,8.7%,8.5%,-18.7%,-25.8%,-4.0%,15.6%
Cruzain inh Det,.,-0.4%,0.3%,10.9%,2.2%,.,.,.
LASV entry inh,.,0.4%,19.1%,6.8%,-0.2%,-10.7%[46.1 µM],?,.
SARS PLpro yeast,0.9%,-2.7%,-9.4%,-10.4%,0.5%,.,-0.2%,8.1%

25) N#Cc1c(-c2ccco2)cc(-c2ccccn2)nc1N
26) O=C(CC(Nc1ccccc1)c1ccccc1)C1CC1 (configuration not stated)
27) CN(CC(=O)Nc1cccc(F)c1)C(=O)c1ccc(OCC2CCCO2)cc1 (configuration not stated)
28) CCCCCCn1c(C)nc2c(c1=O)c1nc3ccccc3nc1n2/N=C/c1ccco1
29) CCc1ccc(N2NC(=O)/C(=C/C=C/c3ccco3)C2=O)cc1
30) Cc1ccccc1NC(=O)C1(C)Cc2ccccc2C(=O)O1 (configuration not stated)
31) Cc1ccc(NC(=O)Cn2cnc3sc(C(=O)NCCN(C)C)c(C)c3c2=O)cc1Cl
32) COc1cc(C(C)=O)ccc1OCC(O)CN1CCN(c2ccc(C)c(C)c2)CC1 (configuration not stated)

Screen / compound no.,25,26,27,28,29,30,31,32
Marburg entry inh,?,-0.4%,26.7%,-8.0%,-17.6%,?,.,6.6%
Cruzain inh noDet,?,.,.,?,?,6.2%,3.3%,.
2A StopGo,-10.8%,-6.3%,10.6%,13.5%,-2.5%,-19.6%,.,-8.2%
NS1 function inh,1.1%,-1.7%,5.6%,7.7%,-0.8%,-0.4%,0.7%,1.6%
RE007 growth inh,0.1%,15.3%,-28.1%,-4.3%,-2.1%,-23.2%,.,-10.3%
Cruzain inh Det,-0.9%,.,.,-2.2%,-5.8%,1.1%,-6.7%,.
LASV entry inh,-1.0%,2.3%,-9.1%,10.0%,-24.5%,-2.3%,.,?
SARS PLpro yeast,-3.1%,0.5%,0.6%,4.2%,-6.2%,?,-5.3%,5.4%

33) CN(CC(=O)NC1CCCCC1)S(=O)(=O)c1cccc2cccnc12
34) COc1ccc(Cl)cc1NC(=O)c1cc(S(=O)(=O)N(C)Cc2ccccc2)ccc1F
35) Cc1cc(NC(=O)CCCn2ccc([N+](=O)[O-])n2)n(Cc2ccc(F)cc2)n1
36) O=C(CCn1c(=O)oc2ccccc21)NCc1ccco1
37) O=C(c1ccc2nc(-c3ccccc3)c(-c3ccccc3)nc2c1)N1CCCCC1
38) CCC(=O)Nc1cccc(C(=O)c2ccc(C)c(C)c2)c1
39) COc1ccc(S(=O)(=O)NCCCCC(=O)O)cc1C(=O)O
40) S=C(NCc1ccc2[nH]c3c(c2c1)CCCC3)Nc1ccccc1Cl

Screen / compound no.,33,34,35,36,37,38,39,40
Marburg entry inh,.,.,-2.5%[46.1 µM],.,.,?,19.7%[46.1 µM],-39.1%
Cruzain inh noDet,-1.2%,1.3%,.,.,.,.,.,?
2A StopGo,-14.3%,0.1%,-21.1%,3.9%,?,-15.2%,-7.4%,-7.6%
NS1 function inh,0.6%,.,.,-2.7%,0.9%,-39.9%,.,20.9%
RE007 growth inh,-1.7%,.,-1.2%,12.0%,-1.9%,-24.4%,0.3%,5.3%
Cruzain inh Det,4.7%,1.1%,.,.,.,.,.,-2.7%
LASV entry inh,.,12.7%[46.1 µM],-19.0%,.,.,?,?,?
SARS PLpro yeast,-5.8%,.,-1.2%,0.7%,-10.1%,-4.9%,6.5%,0.1%

41) CCN(N=O)[C@@H](Cc1ccccc1)CN(N=O)[C@@H](Cc1ccccc1)CN(C)N=O
42) O=S1(=O)CCN2C(Cc3ccc(SC(F)F)cc3)=CSC2=N1
43) Cc1cccc(OC(C)C(=O)N2CCc3ccccc3C2)c1 (configuration not stated)
44) CC(C)(C)NC(=O)C(c1cccs1)N(CC1CCCO1)C(=O)c1ccc(-c2ccccc2)[nH]1 (configuration not stated)
45) CSCC[C@H](NC(=O)c1ccc(Br)o1)c1nnc2ccccn12
46) COCCCNc1cc(C)nc2ccccc12
47) Cc1cccc(CCNS(=O)(=O)c2ccc3c(c2)NC(=O)C(C)S3)c1 (configuration not stated)
48) C/C(=N\Nc1ccc(F)cc1)c1ccc(N2CCOCC2)c(F)c1

Screen / compound no.,41,42,43,44,45,46,47,48
Marburg entry inh,.,-2.6%,.,?,.,2.4%,.,.
Cruzain inh noDet,.,11.6%,.,15.0%,.,-0.1%,.,.
2A StopGo,-3.2%,-10.4%,-5.1%,26.9%,-2.1%,-3.6%,9.1%,7.7%
NS1 function inh,-1.9%,-3.7%,10.3%,11.1%,-0.3%,2.6%,5.2%,3.5%
RE007 growth inh,7.9%,10.5%,3.0%,.,-10.4%,-18.3%,2.1%,0.8%
Cruzain inh Det,.,0.8%,.,-7.9%,.,-5.7%,.,.
LASV entry inh,.,-17.3%,.,-3.8%,.,-5.5%,.,.
SARS PLpro yeast,-0.8%,1.2%,-7.3%,6.9%,-0.9%,-1.6%,10.8%,1.9%

Screens as filed in PubChem BioAssay.
